Screens from PubChem.
Vaccinia Venus: inhibitors of vaccinia virus (Venus reporter); AID 720580; Potency, µM (top dose mostly 36.5 µM), inactives show at the top dose activity change, negative = inhibition, usual class: inhibitors; hit rate 0.46% among 330,000; Vaccinia virus Venus reporter expression, fluorescence; active means well fitted inhibition curve with a large enough effect; inconclusive means small, poorly fitted or top-dose-only effect; inactive means no such curve, though single readings can be large or run the other way; tested in A549 cells; also: nearly all actives have a fitted effect of over 30% in size; inactives centre near -10
Vaccinia mCherry: vaccinia inhibition (mCherry reporter); Vaccinia virus mCherry reporter infection, fluorescence; about a quarter of the inactives have no number; Potency, µM (highest dose often 36.5 µM), without a hit: at the highest dose activity change, negative = inhibition, usual class: inhibitors; hit rate 0.63% among 310,000; active = well fitted inhibition curve with a large enough effect; inconclusive = small, poorly fitted or top-dose-only effect; inactive = no such curve, though single readings can be large or run the other way; tested in A549 cells; also: nearly all actives have a fitted effect of over 35% in size; inactives centre near -10
* = called active by the depositor; i = inactive; ? = inconclusive; nt = no result given; & = joins results of further samples; [ ] = remark or other dose. % is scaled to controls: 0 for no effect and ±100 for the full control effect; potency is read from the fitted curve at half-maximal effect.

No.	Molecule	Vaccinia mCherry	Vaccinia Venus
1	CCCc1nc(S(=O)(=O)Cc2ccc(Cl)cc2Cl)n[nH]1	-14%	-11%
2	COc1cc(-c2nn3c(C4CCCCC4)nnc3s2)cc(OC)c1OC	nt	-1%
3	CC(C)CCn1nnnc1C(c1ccc(N(C)C)cc1)N1CCN(C(=O)c2ccco2)CC1 (centres undefined)	-5%	-7%
4	Cc1nn(C(=O)CCC(=O)NCc2ccc(OC(C)C)cc2)c2ccccc12	16%[7.34 µM]	7%[7.34 µM]
5	COc1ccc(Cl)cc1NC(=O)CSc1nnc(COc2ccccc2)n1N	-28%	-14%
6	Cc1nc(C)c(-c2ccc(SCC(=O)Nc3ccccc3F)nn2)s1	-7%	-2%
7	CCCCNc1nc2c(S(=O)(=O)c3ccc(Br)cc3)nnn2c2ccsc12	-6%	-23%
8	COc1ccc(OC)c(NC(=O)C2CCN(S(=O)(=O)c3ccc4c(c3)CCCC(=O)N4)CC2)c1	-4%	-4%
9	NC(=O)CSc1nc2sc3c(c2c2ncnn12)CCCC3	?	?
10	Cc1ccc2[nH]c(=O)c(CN(Cc3nnnn3C3CCCC3)C3CCCCC3)cc2c1	?	-16%
11	CCn1c(CNC(=O)c2cccc(C)c2)nnc1SCC(=O)NC1=NCCS1	-2%	-8%
12	O=[N+]([O-])c1ccc(N2CCNCC2)cc1NCc1cccnc1	?	?
13	Cc1c(NC(=O)COC(=O)c2cc(-c3cccc4ccccc34)nc3ccccc23)c(=O)n(-c2ccccc2)n1C	-2%	16%
14	Cc1ccc(CCNC(=O)CS(=O)Cc2nc(-c3cccc(C)c3)oc2C)cc1 (centres undefined)	-8%	-24%
15	N#Cc1ccc(NS(=O)(=O)c2ccc(-c3cnc(C4CC4)o3)cc2)cc1	-10%	-9%
16	CCCCN1C(=O)C(CC(=O)NCCN2CCOCC2)CC(C(=O)N2CCOCC2)=C1C (centres undefined)	i	-7%
17	CCN(CC)c1ccc(NC(=O)COc2ccccc2C)cc1S(=O)(=O)Nc1ccccc1OC	i	-23%
18	CCN(c1ccccc1)S(=O)(=O)c1cccc(C(=O)NCC(c2ccco2)N2CCCCC2)c1 (centres undefined)	?	-24%
19	CC(C)C[C@H](NC(=O)c1cc2cc(Cl)ccc2n1C)C(=O)N1CCC(C(=O)O)CC1	i	-14%
20	CSC(=NS(=O)(=O)c1ccc(N)cc1)NS(=O)(=O)c1cccs1	-7%	14%
21	Cc1cc(NC(=O)CSCC(=O)N2CCN(c3cccc(C(F)(F)F)c3)CC2)no1	i	-13%
22	Cc1ccc(-c2nn(-c3ccccc3)cc2/C=N/n2c(-c3ccncc3)n[nH]c2=S)cc1	-8%	-4%
23	CCN(c1cc(C)cc(C)c1)S(=O)(=O)c1nnc(NC(=O)c2ccco2)s1	-2%	2%
24	CCCC[N+]12CCC(CC1)C(C(=O)c1cccs1)C2 (centres undefined)	nt	-20%
25	Cc1cnc(C)c(-c2cc(F)cc3c2OC(CNC(=O)Cc2ccccc2C)C3)n1 (centres undefined)	-10%	5%
26	COc1ccc(N/C=C\C(=O)c2ccc3c(c2)OCO3)cc1OC	i	-15%
27	O=[N+]([O-])c1ccc(Cl)c(CN2CCCCCC2)c1	-16%	-14%
28	Cc1ccc(NC(=O)CCS(=O)(=O)c2cccc3nonc23)cc1Cl	?	?
29	O=C(O)C1CCCCC1C(=O)NCc1ccc2c(c1)OCO2 (centres undefined)	-3%	0%
30	COc1ccc(/C=N/N=C2/NC(=O)C(CC(=O)O)S2)cc1OCc1ccc(Cl)cc1Cl (centres undefined)	-17%	-10%
31	Clc1cccc(Cl)c1CNc1ccc(N2CCCC2)cc1	-6%	10%
32	Cc1ccc(NS(=O)(=O)c2c(C)nc3sccn3c2=O)cc1	-4%	-9%
33	COc1ccc(-n2c(SCC(=O)c3ccc(Cl)cc3)nc3c([nH]c4ccccc43)c2=O)cc1	-4%	11%
34	Clc1ccc(C=Cc2ccccn2)c(Cl)c1	i	-1%
35	CC(C)NC(=O)NNC(=O)c1cc(COc2cc(Cl)cc(Cl)c2)on1	-15%	-11%
36	CN(C)CCN1C(=O)C(=O)/C(=C(/O)c2ccc(S(=O)(=O)N3CCOCC3)cc2)C1c1ccc(Br)cc1 (centres undefined)	i	-20%
37	CCc1nc2c(OCc3c(C)noc3C)cccn2c1N(C)C(=O)c1ccccc1F	14%	2%
38	CCOCCCNC(=O)CSc1nc2nc(C)c(Cc3ccccc3)c(C)n2n1	-20%	21%
39	CC(C)CCNC(=O)c1[nH]c(C(F)(F)F)nc1-c1ccccc1	-2%	-1%
40	COc1ccc(CC(NC(C)=O)C(=O)NC2CCN(C(=O)C3CC3)CC2)cc1OC (centres undefined)	i	-10%

Rewritten as labelled records: entries from further up
36	CN(C)CCN1C(=O)C(=O)/C(=C(/O)c2ccc(S(=O)(=O)N3CCOCC3)cc2)C1c1ccc(Br)cc1 (centres undefined)
  Vaccinia mCherry: i | Vaccinia Venus: -20%
8	COc1ccc(OC)c(NC(=O)C2CCN(S(=O)(=O)c3ccc4c(c3)CCCC(=O)N4)CC2)c1
  Vaccinia mCherry: -4% | Vaccinia Venus: -4%
10	Cc1ccc2[nH]c(=O)c(CN(Cc3nnnn3C3CCCC3)C3CCCCC3)cc2c1
  Vaccinia mCherry: ? | Vaccinia Venus: -16%
6	Cc1nc(C)c(-c2ccc(SCC(=O)Nc3ccccc3F)nn2)s1
  Vaccinia mCherry: -7% | Vaccinia Venus: -2%

The list goes on:
No.	Molecule	Vaccinia mCherry	Vaccinia Venus
41	CCOC(=O)N1CCN(C(=O)c2ccc3c(=O)n(-c4ccc(OC)cc4OC)c(=S)[nH]c3c2)CC1	-5%	-5%
42	Cc1nnc2ccc(N3CCN(c4ccccn4)CC3)nn12	i	-9%
43	O=C(Cn1cc(C(=O)c2ccco2)c2ccccc21)Nc1ccccc1	2%&-13%	4%&-6%
44	C/C=C(/C)C(=O)O[C@@H]([C@H](O)c1cc2ccc(=O)oc2cc1OC)C(C)(C)O[C@@H]1O[C@H](CO)[C@@H](O)[C@H](O)[C@H]1O	i	-17%
45	COc1ccc(CN(C)CCCn2cnc3c(OCc4ccccc4)ncnc32)cc1OC	?	-11%
46	Nc1ncnc2c1ncn2[C@@H]1O[C@H](COS(=O)(=O)O)[C@@H](O)[C@H]1O	-11%	0%
47	O/N=C(\c1ccc(Cl)cc1Cl)c1ncc(C(F)(F)F)cc1Cl	nt	-27%
48	COc1ccc(C(=O)OCC(=O)NC2CCCC2)cc1OC	i	-11%
49	O=C(Cn1c(=O)oc2cc(S(=O)(=O)NCc3ccccc3)ccc21)Nc1ccc(F)c(Cl)c1	-6%	-17%
50	CCCCOC(=O)Nc1ccccc1C(=O)OC	nt	-11%
51	Cc1c(Cl)cccc1N1C(=O)C(N2C(=O)c3cccc([N+](=O)[O-])c3C2=O)C1c1cccs1 (centres undefined)	-11%	-1%
52	COC(=O)c1c(NC(=S)Nc2ccc(CC(=O)O)cc2)sc(C)c1C	-10%	-13%
53	COc1ccc2c(c1)C(NC(C)=O)C(=O)N2CCc1ccccc1 (centres undefined)	i	0%
54	C1CN(c2nc3nonc3nc2N2CCSCC2)CCO1	-13%	-2%
55	Cc1cc(C(F)(F)F)c(C#N)c(=O)[nH]1	nt	-25%
56	COc1ccc(-c2sc3ccccc3c2C#CCO)cc1	?	?
57	COc1cccc(C(=O)Nc2ccccc2C(=O)OCc2cc(=O)n3nc(C4CC4)sc3n2)c1	-11%	-3%
58	COCC(=O)Nc1ccc(S(=O)(=O)Nc2ccccn2)cc1	i	-5%
59	CC1(C)C(=O)N(OCc2ccccc2)C(C)(C)C(=O)N1OCc1ccccc1	-9%	-12%
60	Cc1nc2ccccc2n1Cc1ccccc1Br	-8%	-13%
61	CCOC(=O)/C(C#N)=C(C)/C=C1\Sc2ccccc2N1CC	-22%	-23%
62	COc1ccc([C@H]2/C=C\CN(C(=O)CC(C)(C)C)[C@@H](C)C(=O)N2Cc2ccc(F)cc2)cc1	i	-11%
63	N[C@@]12CCc3nonc3[C@]1(O)CC(c1ccccc1)=[N+]2[O-]	nt	-28%
64	COc1cc(-c2cc(NC=O)c3ncc(-c4cccc(C(F)(F)F)c4)n3c2)cc(OC)c1OC	-6%	-26%
65	Clc1c(-c2nnc3n2CCC3)sc2ccccc12	nt	-15%
66	CCn1nc(C)cc1C(=O)NCCN1Cc2ccccc2OC(c2ccccc2F)C1 (centres undefined)	-20%	-7%
67	Cc1coc2cc3oc(=O)c(CC(=O)NCCc4ccccc4F)c(C)c3cc12	-12%	-1%
68	COc1cccc(/C=C/c2nccc3ccccc23)c1OC	-20%	-17%
69	CC(Sc1nnc(-c2ccco2)n1C)C(=O)N(C)C1CCCCC1 (centres undefined)	-8%	0%
70	CNC(=O)C1CCCN1S(=O)(=O)c1ccc(OC)cc1 (centres undefined)	nt	-11%
71	O=C(NCc1ccccc1)C(c1ccc(F)cc1)N1CCN(c2ccccc2F)CC1 (centres undefined)	-29%	-17%
72	COc1ccccc1C1=NOC(C)(c2nnc(-c3cccc(Cl)c3)o2)C1 (centres undefined)	-11%	-9%
73	Cc1cc(C(F)(F)F)cc(NNC(=O)NC(=O)c2ccc(Cl)cc2)n1	-10%[7.34 µM]	-6%[7.34 µM]
74	COc1cc(C2CC(=O)Oc3cc4c(cc32)OCO4)cc(OC)c1OC (centres undefined)	i	-4%
75	Cc1cc(C)cc(-n2ncc3c2CCCC3NC(=O)c2ccccc2)c1 (centres undefined)	-6%	-19%
76	Cc1nc(SCC(=O)Nc2cc(C)on2)c2c3c(sc2n1)CCCC3	-13%	-12%
77	CNC(=O)COC(=O)c1ccc2c(c1)S(=O)(=O)c1ccccc1C2=O	15%	5%
78	Cc1cc(Cl)ccc1OCCCC(=O)Nc1cccnc1	nt	?
79	Cc1ccc(C(C(=O)NCCc2ccccc2)N(C(=O)c2csnn2)C2CC2)cc1 (centres undefined)	-22%	-10%
80	CCOc1ccc(CCNC(=O)CCS(=O)(=O)c2ccc(Cl)cc2)cc1OCC	-3%	-17%
81	COc1ccc(CCNC(=O)COC(=O)Cc2ccccc2F)cc1	0%	-8%
82	CC(CCO)Nc1nc2c(c(=O)n(C)c(=O)n2C)n1Cc1cccc(Br)c1 (centres undefined)	i	-10%
83	CCOC(=O)C1=C(c2cccc(F)c2)NC(=S)NC1C (centres undefined)	-10%	-1%
84	Cc1ccc(-c2nnn(CC(=O)N(c3ccccc3)C(C(=O)NC(C)(C)C)c3cccs3)n2)o1 (centres undefined)	i	-6%
85	CCCC1NC(=O)c2cccnc2-n2c1nc1ccc(OC)cc1c2=O (centres undefined)	-13%	-5%
86	Cc1ccc(CN2CCN(Cc3ccccc3-c3ccco3)CC2CCO)o1 (centres undefined)	?	-4%
87	COc1ccccc1CCNC(=O)c1cc(C2CC2)nc2c1cnn2C(C)C	-9%	-16%
88	Cc1ccc(C)c(N=C2CCCN2Cc2ccccc2)c1C#N	?	-24%
89	O=C(OCc1ccccc1)N1CCC2CC1c1cc(N3CCN(S(=O)(=O)c4cccc(C(F)(F)F)c4)CC3)ccc12 (centres undefined)	i	-12%
90	O=C1NC(=O)/C(=C\c2cn(Cc3ccccc3F)c3ccccc23)N1	-16%	-2%
91	Cn1c(=O)c2c(c3ccccc31)OC(=O)CC2c1cccc(Cl)c1 (centres undefined)	?	-25%
92	C=C1CCN([C@@H](Cc2ccccc2)C(=O)NCc2ccc(Cl)cc2)S(=O)(=O)c2ccccc21	-29%	-13%
93	CNC(=O)[C@@H]1C[C@@H](NCc2cccc(Oc3ccccc3)c2)CN1C(C)C	-14%	-10%
94	CC(C)Oc1ccc(C(=O)Nc2ccc(N3CCCC3)cc2)cc1	-2%	-22%
95	C[C@H](NC(=O)c1cc2cc(Cl)ccc2n1C)C(=O)N[C@@H](Cc1ccccc1)C(=O)O	i	-19%
96	O=C(c1n[nH]c2ccccc12)N1CCN(c2ccc(F)cc2)CC1	-8%	-10%
97	CCCCCCC1CC(=O)NC(=O)N1 (centres undefined)	-15%	-4%
98	COc1ccccc1NS(=O)(=O)c1ccc(/C=C/C(=O)O)cc1	-14%	-6%
99	CN(CCOc1ccccc1)C(=O)c1ccc(N2CCCC2)c([N+](=O)[O-])c1	-25%	-11%
100	COc1ccc(-c2ccc(OC)cc2)cc1	-18%	-1%

Following part:
No.	Molecule	Vaccinia mCherry	Vaccinia Venus
101	O=C(COc1ccc(S(=O)(=O)NCCc2ccccc2)cc1)N1CCCC1	-16%	-10%
102	Cc1cccc(C)c1Nc1nc2ccccc2o1	?	-9%
103	CC(Oc1ccc(NC(=O)c2ccco2)cc1)C(=O)N1c2ccccc2CC1C (centres undefined)	?	?
104	COc1ccc(-c2noc(CSc3nnc(Cc4ccccc4)n3-c3cccc(C)c3)n2)cc1	-18%	-5%

5 compounds out of the list, sorted by molecular weight, smallest number first:
No.	Molecule	Vaccinia mCherry	Vaccinia Venus
91	Cn1c(=O)c2c(c3ccccc31)OC(=O)CC2c1cccc(Cl)c1 (centres undefined)	?	-25%
75	Cc1cc(C)cc(-n2ncc3c2CCCC3NC(=O)c2ccccc2)c1 (centres undefined)	-6%	-19%
82	CC(CCO)Nc1nc2c(c(=O)n(C)c(=O)n2C)n1Cc1cccc(Br)c1 (centres undefined)	i	-10%
45	COc1ccc(CN(C)CCCn2cnc3c(OCc4ccccc4)ncnc32)cc1OC	?	-11%
92	C=C1CCN([C@@H](Cc2ccccc2)C(=O)NCc2ccc(Cl)cc2)S(=O)(=O)c2ccccc21	-29%	-13%
